CSC inhib = cancer stem cell inhibition; 1.1% of 300,000 active; inhibition, % at 7.5 µM; cancer stem cell-like cells viability, luminescence; AID 2717;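 active = mean at 75% or more and at least half the replicates too; inconclusive = mean and replicates disagree; tested in HMLE shEcad cells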;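 note: 0% = median of negative and 100% = median of positive control wells; the first replicate is given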
eIF4H inh = inhibitors of RNA binding by human eIF4H | 0.94% of 290,000 active | inhibition, % at 35 µM | AID 2012 | Q15056 | eIF4H fluorescence polarization binding assay;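 active = 50% or more with normal probe brightness, or confirmed in later tests; inconclusive = above 50% with abnormal brightness, or retests that disagree; inactive = below 50% or failed in later tests; about a fifth of its hits are not listed in these tables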;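 note: calls also rest on retests at 20 µM and on dose response follow-up; 0% = protein and probe with vehicle and 100% = probe without protein; strong numbers were not always called active; many hits fall short of the cut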
Yeast UUG start = yeast start codon fidelity modulation. S. cerevisiae UUG-firefly luciferase reporter, luminescence/redox ratio. activity score, % at 18.7 µM. 0.13% of 350,000 active;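 active = replicate mean at a twofold rise or more, about +100% in these data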;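 note: firefly luciferase made from a UUG start codon reports start codon fidelity; reporter light over untreated wells divided by growth signal over untreated wells; some hits fall short of that in this replicate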
Env fusion inh = blocks HIV Env-driven cell-cell fusion | HeLa-JRFL Env/CEM21 cell fusion, luciferase | inhibition, % at 12.3 µM | 1.1% of 360,000 active | AID 651610;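 active = mean replicate inhibition score of at least 50 and every replicate individually at or above 50; inconclusive = only one of the two criteria met; inactive = mean below 50 and not all replicates reaching 50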;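 note: 0% = plate neutral controls and 100% = maraviroc near 300 nM; one replicate is shown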
Rce1 inh = yeast Ras-converting enzyme inhibition | yeast membranes, quenched prenylated peptide cleavage fluorescence | calls only | 0.27% of 290,000 active | AID 2563;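 active = fall in fluorescence gain of 50% or more versus controls, with final raw signal at or below 3038400; inconclusive = same 50% fall but final raw signal above 3038400; inactive = fall in fluorescence gain under 50%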;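 note: plate controls were neutral control wells for no effect and wells lacking membranes for full effect; tested at 10 µM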
Target sequence (Q03530 whole entry, looked up): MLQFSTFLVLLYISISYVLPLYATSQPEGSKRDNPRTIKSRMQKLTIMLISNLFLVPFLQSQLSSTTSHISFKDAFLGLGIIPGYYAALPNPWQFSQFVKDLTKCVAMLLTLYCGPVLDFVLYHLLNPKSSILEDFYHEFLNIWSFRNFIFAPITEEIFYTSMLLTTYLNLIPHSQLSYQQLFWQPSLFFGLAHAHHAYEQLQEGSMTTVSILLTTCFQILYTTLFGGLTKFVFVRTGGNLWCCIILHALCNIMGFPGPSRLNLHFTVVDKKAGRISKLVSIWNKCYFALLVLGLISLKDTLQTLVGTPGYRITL
MT1-MMP act inh = blocks activation of human MT1-MMP | 0.061% of 360,000 active | HT1080 RFP-PRO-GFP cells, GFP/RFP ratio fluorescence, overnight; percent of plate control window, DMSO zero | GFP/RFP ratio change, % at 20 µM | AID 651647 | P50281;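 active = GFP/RFP ratio change of at least 30% with cell ATP level not reduced by more than half and red fluorescence within 50% of control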; note: strong numbers were not always called active
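Assay system – RFP-PRO-GFP reporter HT1080 cells · Compound dosing – single dose of 20 µM compound, 1% DMSO final · Incubation – overnight compound exposure at 37 °C · Measure – GFP/RFP fluorescence ratio · Benchmarks – DMSO wells and RFP-L50D-GFP cells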
PABP FP inh = blocks human PABP binding to poly(A) RNA | fluorescence polarization | inhibition, % at 35 µM | 1% of 290,000 active | AID 2014;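 active = 50% or more with normal probe brightness, or confirmed in later tests; inconclusive = above 50% with abnormal brightness, or retests that disagree; inactive = below 50% or failed in later tests; about a fifth of its hits are not listed in these tables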;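 note: calls also rest on retests at 20 µM and on dose response follow-up; controls were probe without protein and protein plus probe with vehicle; some compounds called inactive have numbers as strong as hits; many hits fall short of the cut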
Target sequence (P11940 whole entry, looked up): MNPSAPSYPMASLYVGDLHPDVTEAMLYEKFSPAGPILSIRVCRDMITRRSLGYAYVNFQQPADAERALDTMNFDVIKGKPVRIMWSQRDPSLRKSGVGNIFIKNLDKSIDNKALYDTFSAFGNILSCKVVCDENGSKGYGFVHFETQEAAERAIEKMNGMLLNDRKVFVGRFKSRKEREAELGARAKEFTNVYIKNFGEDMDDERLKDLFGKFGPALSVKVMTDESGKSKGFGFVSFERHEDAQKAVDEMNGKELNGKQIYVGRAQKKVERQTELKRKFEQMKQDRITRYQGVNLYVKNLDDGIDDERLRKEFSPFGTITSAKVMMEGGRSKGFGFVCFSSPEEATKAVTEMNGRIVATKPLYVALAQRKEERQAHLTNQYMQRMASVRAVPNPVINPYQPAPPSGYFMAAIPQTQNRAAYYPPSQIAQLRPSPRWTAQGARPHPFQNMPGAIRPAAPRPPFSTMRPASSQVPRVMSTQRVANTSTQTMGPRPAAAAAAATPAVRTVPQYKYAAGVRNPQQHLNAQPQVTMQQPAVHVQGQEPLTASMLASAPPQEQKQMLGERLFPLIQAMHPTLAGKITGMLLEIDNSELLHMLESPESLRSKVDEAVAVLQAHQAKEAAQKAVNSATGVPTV
MT1-MMP act inh RFP = second read-out of MT1-MMP act inh, no call of its own (marks repeat the call); RFP signal change, %; measured here: RFP expression control read;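 0 = vehicle wells; hits needed this value within 50% of zero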
* hit, by the source's call; i = inactive; ? = inconclusive; · = not tested or not shown; + = active, no number.

SMILES	CSC inhib	eIF4H inh	Yeast UUG start	Env fusion inh	Rce1 inh	MT1-MMP act inh	MT1-MMP act inh RFP	PABP FP inh
O=C1C(Cl)=C(NCC2CCCO2)C(=O)N1c1cccc(Cl)c1Cl (stereo not given)	-1	-2	18	·	i	-1	4	-2
CC1(c2ccccc2)CC(c2ccccc2)=Nc2nonc2N1 (stereo not given)	1	-2	-10	·	i	3	2	4
CN(Cc1ccccc1)C(=O)COC(=O)CCC(=O)c1ccc(F)cc1	7	·	-10	-6	·	-1	6	·
Cc1ccc(S(=O)(=O)NCC2CCC(C(=O)NC3CCCCC3)CC2)cc1 (stereo not given)	-19	-6	-6	4	i	0	-4	2
Cc1ccc(S(=O)(=O)Nc2nc3n(n2)C(c2ccc(Cl)cc2)CC(=O)N3)cc1 (stereo not given)	1	7	-6	·	i	1	3	0
CCn1c(CSc2nc3ccccc3n2C)nc2ccccc21	7	1	-19	-78	i	6	6	0
COCc1cc(CNC(=O)C2CCC(=O)N(Cc3ccccc3OC)C2)[nH]n1 (stereo not given)	-12	-6	-5	-5	i	4	5	-2
CCOC(=O)C(NC(=O)N1CCCCC1)(c1ccccc1)C(F)(F)F (stereo not given)	-12	-4	-24	?	i	2	8	-1
O=C1c2cccc(OCC(=O)N3N=C(c4cccs4)CC3c3ccc(F)cc3)c2CCN1Cc1ccccc1 (stereo not given)	45	46	-17	-13	i	-7	-7	-24
Cc1cc(C)nc(-n2nc(C)c3c(=O)[nH]c(C(F)(F)F)nc32)n1	15	1	·	·	i	1	4	8
CCNC(=O)CN(c1ccc(Oc2ccccc2)cc1)S(=O)(=O)c1ccccc1	3	6	-19	·	i	6	-11	-5
COc1ccc(-c2nnn(CC(=O)N(C3CCCCC3)C(C)C(=O)NC3CCCC3)n2)cc1OC (stereo not given)	-9	-11	10	?	i	-3	-3	-7
CC(=O)Oc1ccc(C(=O)Nc2cccc(NC(=O)c3ccco3)c2)cc1	-9	6	-6	10	i	1	3	9
O=C(Nc1ccccc1)OCC1CCCO1 (stereo not given)	·	·	-21	3	i	-2	0	·
CCOC(=O)Cn1c(=N)n(CCOc2ccc(OC)cc2)c2ccccc21	-12	5	-33	·	i	-2	-3	1
NC(=O)[C@@H]1CCCN1C(=O)c1cc(COc2ccc(F)cc2F)on1	-4	·	-12	-7	i	1	3	·
CCN(CC(=O)NCc1ccc(F)cc1)CC(=O)Nc1ccc(Br)cc1F	9	·	4	·	·	2	-4	·
O=C(Nc1ccc(S(=O)(=O)Nc2ncccn2)cc1)c1ccco1	-8	2	-22	5	i	5	4	3
Cc1ccc(NC(=S)Nc2ccc(OC(F)F)c(Cl)c2)cc1Cl	39	8	-3	-38	i	-2	3	22
C[C@H]1CN(c2ccc(Br)cc2)C(=O)[C@@H]1CC(=O)Nc1ccc(Br)cc1	·	·	-7	-31	·	-4	-1	·
Cc1ccc(-c2nc3ccccc3[nH]2)cc1NC(=S)NC(=O)c1ccccc1Br	-3	-2	-13	·	?	2	-17	-1
CCCSc1ccc([C@H]2N[C@@](CC(C)C)(C(=O)OC)[C@H]3C(=O)N(C)C(=O)[C@@H]23)cc1	-17	·	4	-5	i	8	2	·
COc1cc(C2C(C(=O)Nc3ccccc3OC)=C(C)Nc3ncnn32)ccc1O (stereo not given)	0	3	9	-2	i	0	6	2
Cc1ccsc1C1NC(=O)c2c(sc3c2CCN(C)C3)N1 (stereo not given)	2	?	-8	-20	i	-49	5	?

Entries above with an NH in an aromatic ring, in the order listed:
SMILES	CSC inhib	eIF4H inh	Yeast UUG start	Env fusion inh	Rce1 inh	MT1-MMP act inh	MT1-MMP act inh RFP	PABP FP inh
COCc1cc(CNC(=O)C2CCC(=O)N(Cc3ccccc3OC)C2)[nH]n1 (stereo not given)	-12	-6	-5	-5	i	4	5	-2
Cc1cc(C)nc(-n2nc(C)c3c(=O)[nH]c(C(F)(F)F)nc32)n1	15	1	·	·	i	1	4	8
Cc1ccc(-c2nc3ccccc3[nH]2)cc1NC(=S)NC(=O)c1ccccc1Br	-3	-2	-13	·	?	2	-17	-1

Continuation:
SMILES	CSC inhib	eIF4H inh	Yeast UUG start	Env fusion inh	Rce1 inh	MT1-MMP act inh	MT1-MMP act inh RFP	PABP FP inh
O=C(O)CCc1ccc(-c2ccc(Br)cc2)n1-c1ccc(O)cc1	-13	5	-4	1	i	-4	-1	-19
NC(=O)C1CCN(S(=O)(=O)c2ccc3c(c2)OCCO3)CC1	-4	-4	·	-3	i	-3	-2	-1
COc1ccc(N(C(=O)CCl)C(C)(C(=O)Nc2c(C)cccc2C)c2ccccn2)cc1 (stereo not given)	-9	?	·	·	i	-3	11	7
O=S(=O)(Cc1cc(Sc2ccc(Cl)cc2)nc(-c2ccccc2)n1)c1ccccc1	-4	-3	·	·	i	-3	-1	-9
COc1ccc(C(=O)NCc2cccs2)cc1S(=O)(=O)N1CCOCC1	·	-8	-7	0	i	-1	-2	-7
COc1ccc(OC)c(NC(=O)c2cnc3n(c2=O)CCS3)c1	2	6	5	-17	i	1	4	-4
O=C(O)C1CCC(Cn2c(SCc3cc(=O)n4cc(Br)ccc4n3)nc3ccsc3c2=O)CC1 (stereo not given)	-15	9	·	16	i	4	0	11
Cc1cccc(NC(=O)c2ccc(Cn3cc(C(F)(F)F)ccc3=O)cc2)c1	36	-3	1	-14	i	-2	-6	8
Cc1ccccc1NC(=O)CSc1nc2ccc(Nc3nc(N4CCOCC4)nc(N4CCOCC4)n3)cc2s1	·	0	-7	·	i	3	-7	-12
O=C(NC1CCCC1)C(c1ccc(Cl)cc1)N1CCc2ccccc21 (stereo not given)	12	0	18	6	i	-2	0	-1
COc1ccc(NC(=O)c2c(F)cccc2F)cc1S(=O)(=O)Nc1ccc(Br)cc1	-4	-5	-7	·	i	0	-10	10
COc1ccc(OCC(=O)N2CCN(S(=O)(=O)c3ccccc3[N+](=O)[O-])CC2)cc1	-8	-8	·	5	i	0	-1	4
C/C(=N\O)c1c(O)cc(-c2ccccc2)n(-c2ccccc2)c1=O	-11	5	-7	10	i	-1	0	-8
Cc1cc(C(=O)NCC(=O)OC(C)C(=O)N2CCOCC2)ccc1[N+](=O)[O-] (stereo not given)	-4	·	-11	·	·	1	2	·
O=C(C1=C[C@H](c2coc3ccccc3c2=O)C[C@H](OCCCCO)O1)N1CCN(Cc2ccccc2)CC1	-11	5	-2	24	i	0	4	6
Cc1ccc(OCC(=O)NNC(=O)c2cc(S(=O)(=O)N(C)C)ccc2N2CCCC2)cc1	·	·	-19	-25	·	0	7	·
Clc1ccc(C(c2nnnn2C2CCCC2)N2CCSCC2)cc1 (stereo not given)	6	-7	-9	·	i	-5	4	-5
c1ccc(OCc2nc3ccccc3[nH]2)cc1	3	-2	-16	-106	i	1	3	-1
CCOC(=O)Cc1csc(NC(=O)Cc2ccc([N+](=O)[O-])cc2)n1	-12	-1	·	11	i	2	2	3
CCOC(=O)C1CCCN(C(=O)c2cn(CC)c(=O)c3cc(OC)c(OC)cc23)C1 (stereo not given)	-8	5	44	-30	i	1	4	7
CCc1ccccc1NC(=O)CN(C)C(=O)COC(=O)c1ccccc1Cl	·	·	-11	-13	·	1	-1	·
OCC[C@@H]1C[C@H](O)[C@@H](O)[C@@]2(CCc3ccccc3O2)O1	-10	1	-14	8	i	-2	-1	-10
CCSc1nc2nn(-c3ccccc3)c(=O)c-2c2n1CCCCC2	39	5	-21	·	i	-4	-3	4
CC(=O)Oc1ccc(N(C(C)=O)S(=O)(=O)c2ccc(C)cc2)c2ccccc12	7	·	·	-8	i	3	-1	·
Cn1nc(C(=O)Nc2nnc(C3CC3)s2)c2ccccc2c1=O	-4	2	·	-24	i	0	-1	-2
CCc1ccccc1NC(=O)Cc1ccc(-n2cccc2)cc1	-5	-5	-2	-8	i	0	2	-8
COc1ccc(/C=C(\C#N)C(=O)NCCc2ccccc2)cc1OCc1ccccc1	16	5	·	47	i	-7	-9	10
Cc1cc(C)c(NS(=O)(=O)c2ccc(NC(=O)c3cccs3)cc2)c(C)c1	18	-7	·	26	i	0	-5	-6
CC(C)Cc1nnc(NC(=O)CCC(=O)NCc2ccccc2Cl)s1	3	-7	·	11	i	0	0	1
Cc1cc(C)n2cc(CSCC(=O)O)nc2n1	-8	-10	·	-14	+	6	11	4
COc1ccc(C(O)c2nc(-c3ccc(C)c(C)c3)cs2)cc1 (stereo not given)	·	·	-18	-22	·	0	-7	·
O=C(CN1C2CCC1CC(NC(=O)C1CC1)C2)NCc1ccccc1 (stereo not given)	-10	3	-17	-29	i	2	3	8
CCOc1ccc(-n2c(SCC(=O)Nc3ccc4c(c3)OCO4)nc3c(c2=O)SCC3)cc1	·	4	-15	10	·	0	6	20
CCN(CC)C(=O)CSc1nc(O)c(Cc2ccccc2)c(=O)n1-c1ccc(C)cc1	-4	-7	-7	2	i	3	-1	4
CC(C)[C@H](NS(=O)(=O)c1ccccc1F)C(=O)NC1CCCCC1	8	·	-11	·	·	0	-1	·
COc1ccc(CNC(=O)CN(C(=O)c2cc3sccc3n2C)C2CCCC2)cc1	·	4	-6	·	i	-2	-7	6
CCCCNc1c(-c2ccc(OC)c(Sc3ccc(OC)cc3)c2)nc2ccc(Cl)cn12	·	·	-9	14	·	-2	-12	·
CC(C)(C)C(=O)[C@@H]1[C@@H]2C(=O)N(C3CCCCC3)C(=O)[C@@H]2[C@H]2c3ccccc3C=CN12	3	0	-2	-16	·	-18	5	-1
O=C(CSc1nnc(NC(=O)c2ccco2)s1)NC1CCCCC1	-1	8	-6	-5	i	-7	-2	2
CCNS(=O)(=O)c1ccc(CCC(=O)Nc2cc(Cl)ccc2Oc2ccccc2)cc1	19	-4	-20	107*	i	-7	-15	-6
O=C(Nc1ccc(Cl)cc1)Nc1cnccn1	6	-12	·	-18	·	-2	-1	-6
O=C(NCC1CCCN(C(=O)c2cscn2)C1)c1ccccc1Cl (stereo not given)	-4	-2	·	-8	i	-7	0	9
Cc1cccc(NC(=O)COC(=O)CC2CCCC2)c1C	·	·	-16	0	·	3	6	·
CCOC(=O)Cn1c(S(=O)(=O)Cc2ccccc2Cl)nc(-c2ccccc2)c1-c1ccccc1	14	1	-24	·	i	-21	-16	-3
CCC(C)(C)NC(=O)Cc1ccc(Cl)cc1	0	16	·	11	i	0	5	6
C=CCn1c(SCC(=O)NCc2ccccc2)nnc1-c1cc(Br)ccc1O	-2	3	-15	-96	i	8	-1	2
O=C(Nc1ncc(Cc2cccc(Cl)c2)s1)C1=NCCN1	35	19	-4	-11	i	7	4	-1
Cc1cc(C)c(C)c(S(=O)(=O)N2CCC(C(=O)Nc3ccccc3N3CCOCC3)CC2)c1C	11	-1	·	-15	i	-11	-10	-14
COc1ccc(C(=O)OCC(=O)NC2CCCC2)c(OC)c1	·	3	-16	9	i	-2	-3	-3
Cc1cccc(N2CCN(C(=O)Cc3ccc(-n4c(=O)[nH]c5ccsc5c4=O)cc3)CC2C)c1 (stereo not given)	·	-5	21	·	i	-1	-2	2
N=c1n(CC(=O)c2cccc([N+](=O)[O-])c2)c2ccccc2n1Cc1ccccc1	24	-2	-16	19	i	1	-3	-8
COc1ccccc1N1CCN(/N=C/c2cc(Br)ccc2F)CC1	15	5	-3	-51	i	4	0	1
CC1CC(C)CN(C(=O)COC(=O)CCCN2C(=O)c3cccc4cccc(c34)C2=O)C1 (stereo not given)	·	-23	-4	·	i	2	4	2
COc1ccc(C2=NCCn3nc4cc([N+](=O)[O-])ccc4c32)cc1	-5	·	-17	-5	i	1	10	·
COc1cc2c(cc1OC)CN(CC(=O)Nc1ccc(C)c(C)c1)CC2	-1	0	0	16	i	-2	-3	-4
CCOc1ccc(C(=O)NC(=S)Nc2ccccc2N2CCOCC2)cc1Br	101*	6	·	8	i	-1	-5	-5

Screens: PubChem, several laboratories
